# A1 apoptosis 2 = A1 inhibitors via caspase activation, primary screen, cell-based, luminescence, HTS, two replicates. MEF A1-2A-BIM cells, caspase-Glo luminescence, 3 h; percent of clofoctol response, DMSO zero. caspase activation, % (test concentration not listed). 24,000 tested, under 10 active. AID 2465, 2010; in the data active means caspase activation above about 5.9%;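 further: wells of about 30 µL received 50 nL stock; the first replicate is given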
#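 system = A1-2A-BIM-expressing MEF cells | quantity = 2500 MEF cells/well | dosing = 50 nL compound per well, pinned | schedule = overnight cell settling, then 3 h compound exposure, 37 °C | signal = luminescence from DEVD-luciferin Caspase-Glo reagent, 1:1 in 50 mM HEPES, 1 h RT | read-out = Caspase-3/7 activation, seen as rise in luminescence signal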
# * marks the source's active call; other numbers are inactive results. These rows are one share of the data; count on the stated rates, not on these rows.
mol	A1 apoptosis 2
Cc1noc(C)c1NC(=O)Nc1cccc2c1O[C@@H](CN(C)S(=O)(=O)c1cn(C)cn1)[C@H](C)CN([C@@H](C)CO)C2=O	2.0
Cc1noc(C)c1S(=O)(=O)Nc1ccc2c(c1)CC(=O)N([C@@H](C)CO)C[C@@H](C)[C@H](CN(C)Cc1ccc3c(c1)OCO3)O2	-1.9
Cc1noc(C)c1S(=O)(=O)Nc1cccc2c1O[C@@H](CN(C)Cc1ccccc1)[C@@H](C)CN([C@H](C)CO)C2=O	-1.1
C[C@@H]1CN([C@@H](C)CO)C(=O)c2cc(NC(=O)C3CC3)ccc2O[C@@H]1CN(C)Cc1ccc(C(=O)Nc2ccccc2N)cc1	0.6
Cc1cc(C(=O)Nc2cccc3c2O[C@H](CN(C)Cc2ccncc2)[C@H](C)CN([C@H](C)CO)C3=O)n(C)n1	0.3
C[C@@H]1CN([C@H](C)CO)C(=O)c2cc(NS(=O)(=O)c3ccc(F)cc3)ccc2O[C@H]1CN(C)Cc1ccc(-c2ccccc2)cc1	0.2
C[C@H]1CCCCO[C@@H](CN(C)C(=O)C2CCCCC2)[C@@H](C)CN([C@@H](C)CO)C(=O)c2cc(NC(=O)c3ccccc3)ccc2O1	0.6
CCCC(O)C#Cc1cnc2c(c1)C(=O)N([C@H](C)CO)C[C@H](C)[C@H](CN(C)Cc1ccncc1)O2 (some centres not stated)	0.2
C[C@@H]1CCCCO[C@@H](CN(C)Cc2ccncc2)[C@H](C)CN([C@H](C)CO)C(=O)c2cc(NC(=O)Cc3ccccc3)ccc2O1	1.0
C[C@@H]1CN([C@@H](C)CO)C(=O)c2cc(NC(=O)CCCCCC(=O)Nc3ccccc3N)ccc2O[C@@H]1CN(C)S(=O)(=O)c1cn(C)cn1	0.5
CC(C)NC(=O)N(C)C[C@H]1Oc2ccc(NC(=O)C3CC3)cc2CC(=O)N([C@H](C)CO)C[C@H]1C	0.0
C[C@@H]1CN([C@H](C)CO)C(=O)c2cccc(NC(=O)CCCCCC(=O)Nc3ccccc3N)c2O[C@@H]1CN(C)S(=O)(=O)c1ccc(Cl)cc1	-0.6
C[C@@H]1CN([C@@H](C)CO)C(=O)c2cc(NC(=O)c3ccccc3)ccc2O[C@@H](C)CCCCO[C@@H]1CN(C)C(=O)CCC(F)(F)F	1.0
CC(C)NC(=O)N(C)C[C@H]1OCc2cnnn2CCCC(=O)N([C@H](C)CO)C[C@@H]1C	0.3
C[C@@H]1CN([C@H](C)CO)C(=O)Cc2cc(NC(=O)CCN3CCOCC3)ccc2O[C@H]1CN(C)CC1CC1	0.7

# New compounds follow:
mol	A1 apoptosis 2
Cc1noc(C)c1NC(=O)N(C)C[C@H]1OCCCC[C@H](C)Oc2ccc(N(C)C)cc2C(=O)N([C@H](C)CO)C[C@@H]1C	2.4
C[C@@H]1CCCCO[C@@H](CN(C)S(=O)(=O)c2cn(C)cn2)[C@@H](C)CN([C@@H](C)CO)C(=O)c2cc(NS(C)(=O)=O)ccc2O1	1.2
COc1ccc(NC(=O)Nc2ccc3c(c2)C(=O)N([C@H](C)CO)C[C@H](C)[C@@H](CN(C)S(=O)(=O)c2ccc(F)cc2)OCCCC[C@@H](C)O3)cc1	0.4
Cc1noc(C)c1NC(=O)Nc1ccc2c(c1)C(=O)N([C@@H](C)CO)C[C@H](C)[C@@H](CN(C)S(=O)(=O)c1ccc(Cl)cc1)O2	0.1
C[C@@H]1CN([C@H](C)CO)C(=O)c2cc(NS(=O)(=O)c3ccc(Cl)cc3)ccc2O[C@@H](C)CCCCO[C@@H]1CN(C)Cc1ccncc1	0.2
Cc1noc(C)c1S(=O)(=O)N(C)C[C@H]1OCCCC[C@H](C)Oc2ccc(NC(=O)Nc3ccc4c(c3)OCO4)cc2C(=O)N([C@H](C)CO)C[C@@H]1C	0.1
CNC[C@@H]1OCCCC[C@H](C)Oc2ccc(NS(=O)(=O)c3cccs3)cc2C(=O)N([C@H](C)CO)C[C@@H]1C	-0.2
C[C@H](CO)N1C[C@H](C)[C@H](CN(C)S(=O)(=O)c2ccccc2)Oc2ccc(NC(=O)C3CC3)cc2CC1=O	-0.5
Cc1noc(C)c1NC(=O)Nc1ccc2c(c1)C(=O)N([C@@H](C)CO)C[C@H](C)[C@H](CN(C)Cc1ccncc1)OCCCC[C@@H](C)O2	-0.2
C[C@@H]1CN([C@@H](C)CO)C(=O)c2cc(NC(=O)Nc3ccc4c(c3)OCO4)ccc2O[C@H]1CN(C)C(=O)Nc1ccc2c(c1)OCO2	-0.1
COc1ccc(CN(C)C[C@@H]2Oc3c(NC(=O)Nc4ccccc4)cccc3C(=O)N([C@@H](C)CO)C[C@H]2C)cc1	-0.6
CNC[C@@H]1OCCCC[C@@H](C)Oc2ccc(NC(=O)CCC(F)(F)F)cc2C(=O)N([C@@H](C)CO)C[C@@H]1C	0.1
COc1ccc(S(=O)(=O)Nc2ccc3c(c2)C(=O)N([C@H](C)CO)C[C@H](C)[C@H](CN(C)Cc2ccncc2)O3)cc1	0.1
C[C@H](CO)N1C[C@H](C)[C@H](CN(C)S(C)(=O)=O)Oc2ncc(C#CC(C)(C)O)cc2C1=O	0.2
CNC[C@H]1Oc2c(NC(=O)C3CC3)cccc2C(=O)N([C@H](C)CO)C[C@@H]1C	0.8

# Some of the entries so far, with each value named:
smiles: C[C@@H]1CCCCO[C@@H](CN(C)Cc2ccncc2)[C@H](C)CN([C@H](C)CO)C(=O)c2cc(NC(=O)Cc3ccccc3)ccc2O1
  A1 apoptosis 2 = 1.0

smiles: C[C@@H]1CN([C@@H](C)CO)C(=O)c2cc(NC(=O)CCCCCC(=O)Nc3ccccc3N)ccc2O[C@@H]1CN(C)S(=O)(=O)c1cn(C)cn1
  A1 apoptosis 2 = 0.5

# An excerpt from above in order of SMILES length, lowest first.
mol	A1 apoptosis 2
C[C@H](CO)N1C[C@H](C)[C@H](CN(C)S(=O)(=O)c2ccccc2)Oc2ccc(NC(=O)C3CC3)cc2CC1=O	-0.5
COc1ccc(S(=O)(=O)Nc2ccc3c(c2)C(=O)N([C@H](C)CO)C[C@H](C)[C@H](CN(C)Cc2ccncc2)O3)cc1	0.1
C[C@@H]1CN([C@@H](C)CO)C(=O)c2cc(NC(=O)Nc3ccc4c(c3)OCO4)ccc2O[C@H]1CN(C)C(=O)Nc1ccc2c(c1)OCO2	-0.1
Cc1noc(C)c1NC(=O)Nc1ccc2c(c1)C(=O)N([C@@H](C)CO)C[C@H](C)[C@H](CN(C)Cc1ccncc1)OCCCC[C@@H](C)O2	-0.2
Cc1noc(C)c1S(=O)(=O)N(C)C[C@H]1OCCCC[C@H](C)Oc2ccc(NC(=O)Nc3ccc4c(c3)OCO4)cc2C(=O)N([C@H](C)CO)C[C@@H]1C	0.1

# The listing continues:
mol	A1 apoptosis 2
COc1ccc(CN(C)C[C@@H]2Oc3c(NS(=O)(=O)c4ccc(OC)cc4)cccc3C(=O)N([C@H](C)CO)C[C@@H]2C)cc1	-0.7
COc1ccc(S(=O)(=O)N(C)C[C@@H]2Oc3ccc(NS(=O)(=O)c4ccccc4)cc3C(=O)N([C@@H](C)CO)C[C@H]2C)cc1	-1.2
NC(=O)COc1ccccc1/C=N/NC(=O)CCCCCCC(=O)Nc1ccccc1O	-0.3
CC(C)NC(=O)N(C)C[C@H]1Oc2ccc(NC(=O)CCC(F)(F)F)cc2CC(=O)N([C@H](C)CO)C[C@@H]1C	0.6
C[C@H]1CN([C@@H](C)CO)C(=O)CCCn2nncc2CO[C@@H]1CN(C)Cc1ccncc1	0.3
C[C@@H]1CCCCO[C@@H](CN(C)S(=O)(=O)c2ccc(Cl)cc2)[C@@H](C)CN([C@H](C)CO)C(=O)c2cc(NC(=O)CCCCCC(=O)Nc3ccccc3N)ccc2O1	-0.3
C[C@@H]1CN([C@H](C)CO)C(=O)c2cc(NC(=O)C3CCCCC3)ccc2O[C@@H](C)CCCCO[C@@H]1CN(C)S(=O)(=O)c1ccc(F)cc1	0.1
C[C@@H]1CN([C@@H](C)CO)C(=O)CCCn2cc(nn2)CO[C@@H]1CN(C)C(=O)C1CC1	0.1
Cc1noc(C)c1NC(=O)Nc1ccc2c(c1)C(=O)N([C@@H](C)CO)C[C@@H](C)[C@H](CN(C)C)OCCCC[C@@H](C)O2	-0.1
C[C@@H]1CN([C@H](C)CO)C(=O)c2cccc(NC(=O)c3cnccn3)c2O[C@@H]1CN(C)Cc1ccc2c(c1)OCO2	-0.3
CNC[C@@H]1Oc2ccc(NC(=O)CCC(F)(F)F)cc2CC(=O)N([C@H](C)CO)C[C@H]1C	-0.4
Cc1ccc(S(=O)(=O)Nc2ccc3c(c2)C(=O)N([C@@H](C)CO)C[C@@H](C)[C@@H](CN(C)C(=O)Nc2ccc(F)cc2)OCCCC[C@H](C)O3)cc1	-1.5
Cc1ccc(S(=O)(=O)Nc2ccc3c(c2)C(=O)N([C@H](C)CO)C[C@H](C)[C@H](CN(C)Cc2ccc(C(=O)Nc4ccccc4N)cc2)O3)cc1	1.1
CC(C)NC(=O)Nc1ccc2c(c1)C(=O)N([C@@H](C)CO)C[C@H](C)[C@H](CN(C)C(=O)C1CCCCC1)OCCCC[C@H](C)O2	0.8
Cc1noc(C)c1NC(=O)Nc1ccc2c(c1)C(=O)N([C@H](C)CO)C[C@H](C)[C@H](CN(C)C(=O)Nc1ccccc1)O2	-0.9

# Remaining list, next part
mol	A1 apoptosis 2
C[C@@H]1CN([C@H](C)CO)C(=O)c2cccc(NC(=O)Nc3ccc4c(c3)OCO4)c2O[C@H]1CN(C)C(=O)Nc1ccc(C(F)(F)F)cc1	-0.1
Cc1noc(C)c1NC(=O)Nc1ccc2c(c1)CC(=O)N([C@H](C)CO)C[C@H](C)[C@@H](CN(C)Cc1ccc(C(F)(F)F)cc1)O2	-0.8
C[C@@H]1CN([C@@H](C)CO)C(=O)c2cc(NS(=O)(=O)c3cn(C)cn3)ccc2O[C@@H](C)CCCCO[C@@H]1CN(C)Cc1ccc(C(F)(F)F)cc1	0.2
C[C@@H]1CN([C@@H](C)CO)C(=O)c2cc(NS(=O)(=O)c3ccccc3)ccc2O[C@@H]1CN(C)S(=O)(=O)c1cccs1	-0.9
COc1ccc(NC(=O)Nc2ccc3c(c2)C(=O)N([C@@H](C)CO)C[C@@H](C)[C@@H](CN(C)C(=O)NC2CCCCC2)OCCCC[C@H](C)O3)cc1	0.0
CC(C)NC(=O)N(C)C[C@H]1Oc2c(NC(=O)Nc3ccc(F)cc3)cccc2C(=O)N([C@@H](C)CO)C[C@H]1C	-0.3
C[C@@H]1CCCCO[C@H](CN(C)S(=O)(=O)c2ccccc2)[C@@H](C)CN([C@@H](C)CO)C(=O)c2cc(NC(=O)Nc3ccc4c(c3)OCO4)ccc2O1	-1.4
C[C@@H]1CN([C@H](C)CO)C(=O)c2cc(NC(=O)c3ccccc3)ccc2O[C@@H](C)CCCCO[C@H]1CN(C)C(=O)Nc1ccccc1	1.2
C[C@@H]1CCCCO[C@@H](CN(C)C)[C@@H](C)CN([C@@H](C)CO)C(=O)c2cc(NS(C)(=O)=O)ccc2O1	0.1
C[C@H](CO)N1C[C@H](C)[C@@H](CN(C)C)Oc2ccc(NS(=O)(=O)c3cn(C)cn3)cc2C1=O	1.9
C[C@@H]1CCCCO[C@H](CN(C)S(=O)(=O)c2ccc(Cl)cc2)[C@H](C)CN([C@H](C)CO)C(=O)c2cc(NC(=O)Cc3ccccc3)ccc2O1	0.3
O=C1O[C@H](c2ccccc2)[C@H](c2ccccc2)N2[C@H]1[C@@H](C(=O)O)[C@]1(C(=O)Nc3ccc(C#CC4(O)CCCCCC4)cc31)[C@H]2c1ccc(O)cc1	0.2
C[C@H]1CN([C@@H](C)CO)C(=O)c2cccc(NC(=O)Nc3ccc4c(c3)OCO4)c2O[C@H]1CN(C)S(=O)(=O)c1cccs1	-0.8
C[C@@H]1CCCCO[C@@H](CN(C)C)[C@H](C)CN([C@@H](C)CO)C(=O)c2cc(NS(=O)(=O)c3cccs3)ccc2O1	0.1
C[C@H](CO)N1C[C@H](C)[C@@H](CN(C)Cc2ccc(Oc3ccccc3)cc2)Oc2ccc(NC(=O)CCCN(C)C)cc2CC1=O	-0.5

# Carrying on:
mol	A1 apoptosis 2
C[C@@H]1CCCCO[C@@H](CN(C)C(=O)C2CCCCC2)[C@@H](C)CN([C@H](C)CO)C(=O)c2cc(NC(=O)CCCN(C)C)ccc2O1	-0.9
C[C@H]1CN([C@@H](C)CO)C(=O)c2cccc(NC(=O)C3CC3)c2O[C@@H]1CN(C)C	0.1
C[C@@H]1CCCCO[C@H](CN(C)S(C)(=O)=O)[C@@H](C)CN([C@H](C)CO)C(=O)c2cc(NS(=O)(=O)c3cn(C)cn3)ccc2O1	0.7
COc1ccc(S(=O)(=O)Nc2ccc3c(c2)CC(=O)N([C@H](C)CO)C[C@@H](C)[C@@H](CN(C)Cc2ccc(Cl)c(Cl)c2)O3)cc1	-0.8
O=C(NC1CC1)C1=C[C@H](c2coc3ccccc3c2=O)C[C@H](OCCCCO)O1	0.6
CNC[C@@H]1OCCCC[C@H](C)Oc2ccc(NC(=O)C3CCCCC3)cc2C(=O)N([C@H](C)CO)C[C@@H]1C	1.1
C[C@@H]1CCCCO[C@@H](CN(C)C(=O)Nc2ccccc2)[C@H](C)CN([C@@H](C)CO)C(=O)c2cc(NS(C)(=O)=O)ccc2O1	0.6
C[C@@H]1CN([C@H](C)CO)C(=O)c2cccc(NC(=O)NC3CCCCC3)c2O[C@H]1CN(C)C(=O)Nc1cccc2ccccc12	1.2
CC(C)NC(=O)Nc1ccc2c(c1)C(=O)N([C@@H](C)CO)C[C@@H](C)[C@H](CN(C)C(=O)NC(C)C)OCCCC[C@@H](C)O2	-0.1
C[C@@H]1CCCCO[C@@H](CN(C)C(=O)Nc2ccc(F)cc2)[C@@H](C)CN([C@H](C)CO)C(=O)c2cc(NC(=O)Nc3ccccc3)ccc2O1	-0.9
